Vaccinia mCherry = inhibitors of vaccinia virus infection (mCherry reporter signal); AID 720579; hit rate 0.63% among 310,000; Vaccinia virus mCherry reporter infection, fluorescence; about a quarter of the inactives have no number; Potency, µM (highest dose often 36.5 µM), for the others: top-dose activity change, negative = inhibition, hits mostly inhibitors; active = well fitted inhibition curve with a large enough effect; inconclusive = small, poorly fitted or top-dose-only effect; inactive = no such curve, though single readings can be large or run the other way; tested in A549 cells; note: nearly all actives have a fitted effect of over 35% in size; inactives centre near -10
VACV Venus inh = vaccinia inhibition (Venus reporter) | Potency, µM (series often up to 36.5 µM), for the others: top-dose activity change, negative = inhibition, actives largely listed as inhibitors | Vaccinia virus Venus reporter expression, fluorescence | AID 720580 | hit rate 0.46% among 330,000; active means well fitted inhibition curve with a large enough effect; inconclusive means small, poorly fitted or top-dose-only effect; inactive means no such curve, though single readings can be large or run the other way; tested in A549 cells; note: nearly all actives have a fitted effect of over 30% in size; inactives centre near -10
* = called active by the depositor; i = inactive; ? = inconclusive; / = not tested or not shown; & = joins results of further samples; [ ] = dose if it differs, or a comment. % is set by controls: 0 for no effect and ±100 for the full control effect; potency is the fitted concentration of half-maximal effect.

Screens in order: Vaccinia mCherry | VACV Venus inh
COc1cccc(C(=O)N(C)C(C)c2nc3ccccc3s2)c1 (stereo unspecified)
 : 1% | -6%
CC(C)(C)c1cc(=O)n(-c2ccccc2)[nH]1
 : i | -2%
O=S(=O)(NC(=S)c1ccccc1)c1ccccc1
 : i | -4%
COc1ccc(S(=O)(=O)Nc2ccc3c(c2)CC(=O)N([C@H](C)CO)C[C@H](C)[C@H](CN(C)C(=O)Nc2ccc4c(c2)OCO4)O3)cc1
 : 0% | -5%
Cc1cccc2cc(CN(Cc3cccs3)Cc3nnnn3Cc3ccccc3)c(=O)[nH]c12
 : -30% | ?
Cc1ccc(Cl)cc1N1CCN(C(=O)Cn2ccc3ccccc3c2=O)CC1
 : ? | ?
c1ccc(-c2cc(-c3ccncc3)nc3ccc4ccccc4c23)cc1
 : -18% | -4%
COc1cc(C(=S)N2CCC(Cc3ccccc3)CC2)ccc1OCC(N)=O
 : -8% | -7%
Cc1c2cn[nH]c(=O)c2c(C)n1-c1ccccc1
 : -7% | -4%
CCOC(=O)c1c(N)sc2c1CCN(Cc1ccccc1)C2
 : -8% | -20%
Cc1cccc(NC(=O)CSc2nncn2C)c1
 : 12% | -3%
NC(=O)CCC1NC(=S)N(Cc2ccccc2)C1=O (stereo unspecified)
 : -1% | -12%
CC/C(=N\NC(=O)CSCc1ccc(Cl)cc1)c1ccc2c(c1)OCCO2
 : i | -17%
CCOc1cc(/C=N/NC(=O)c2ccc(N(C)S(=O)(=O)c3ccccc3)cc2)ccc1OC
 : -25% | -15%
OC(C#CCCN1CCCCC1)(c1ccccc1)c1ccccc1
 : i | -10%
COc1ccc(CN(C)C(=O)c2cc(-c3ccc(C)cc3C)nc3ccccc23)c(OC)c1OC
 : i | -5%
CCC(=O)N1CCc2cc(Br)cc(S(=O)(=O)N3CCC(C(=O)NC(C)(C)C)CC3)c21
 : -16%&-12% | -5%&-4%
CC1CN(c2ccc(S(=O)(=O)N3CCOCC3)cn2)CC(C)O1 (stereo unspecified)
 : / | -17%
COc1ccc(-c2ccc(=O)n(CC(=O)Nc3ccc(Br)cc3F)n2)cc1
 : -8% | 0%
CC/C(=N\Nc1ccnc2cc(Cl)ccc12)c1ccc(O)cc1
 : ? | -11%
COc1ccc(C2CC(c3ccccc3O)=NN2c2ccccc2)cc1 (stereo unspecified)
 : ? | -5%[7.34 µM]
COc1c(N2CCN(C(=S)NCc3ccccc3)C(C)C2)c(F)cc2c(=O)c(C(=O)O)cn(C3CC3)c12 (stereo unspecified)
 : / | 13µM*
COc1ccccc1C1(CC(=O)N2CCOCC2)CCOC(C(C)C)C1 (stereo unspecified)
 : -21% | -15%
NCCOc1cnn(-c2ccccc2Cl)c(=O)c1Cl
 : i | -2%
CCOc1ccc(C(=O)Nc2ccc(C(=O)OCc3cc(=O)n4ccsc4n3)cc2)cc1
 : -16% | 0%
CCOC(=O)c1cccc(C2=CC(=O)C[C@H](c3ccc(Cl)cc3)C2)c1
 : -30% | -7%
Cc1ccc(S(=O)(=O)N2CCC(=O)N(CCOCc3ccccc3C)CC2)cc1
 : i | -14%
CCN(CC(=O)Nc1c(F)cccc1F)C(=O)c1cc(C)nc2ccccc12
 : -7% | -6%
O=C1c2oc3ccc(F)cc3c(=O)c2C(c2ccc(F)cc2)N1CCCN1CCOCC1 (stereo unspecified)
 : i | -11%
CC(NS(=O)(=O)c1cccc(Cl)c1)C(=O)N(C)C1CCN(C)CC1 (stereo unspecified)
 : i | -12%

Some of these compounds in order of heavy-atom count, smallest number first.
Screens in order: Vaccinia mCherry | VACV Venus inh
NCCOc1cnn(-c2ccccc2Cl)c(=O)c1Cl
 : i | -2%
CC(NS(=O)(=O)c1cccc(Cl)c1)C(=O)N(C)C1CCN(C)CC1 (stereo unspecified)
 : i | -12%
COc1ccc(C2CC(c3ccccc3O)=NN2c2ccccc2)cc1 (stereo unspecified)
 : ? | -5%[7.34 µM]
CC/C(=N\NC(=O)CSCc1ccc(Cl)cc1)c1ccc2c(c1)OCCO2
 : i | -17%
COc1ccc(CN(C)C(=O)c2cc(-c3ccc(C)cc3C)nc3ccccc23)c(OC)c1OC
 : i | -5%

(listing goes on)
Screens in order: Vaccinia mCherry | VACV Venus inh
COc1ccc(S(=O)(=O)N2CCN(Cc3cccc(Cl)c3)CC2)cc1
 : / | -1%
COc1ccc(CNC(=O)C(=O)NCC2CCCN2S(=O)(=O)c2cccs2)cc1 (stereo unspecified)
 : i | -8%
COc1ccc2cc3cc(C(=O)NCC4CCCO4)oc3nc2c1 (stereo unspecified)
 : -7% | -8%
Cc1nn(C)c(C)c1S(=O)(=O)NCc1cccs1
 : -15% | -14%
CCOc1cc(N2CCOCC2)c(OCC)cc1NC(=O)c1ccccc1C
 : i | -9%
CCc1ccccc1NC(=O)C1CCN(S(=O)(=O)c2ccc3[nH]c(=O)ccc3c2)CC1
 : -3% | -9%
CCSc1nc2cc(OC)c(OC)cc2c(=O)n1CC
 : ? | -23%
Cc1ccc2c(C)c(C(=O)N3CCN(c4ccncc4)CC3)oc2c1C
 : i | -25%
Cc1c[n+](CC(=O)c2ccccc2)c(C)cn1
 : -23% | -4%
CCOc1ccccc1NC(=O)C1CCCN(c2c(CC)c(C)nc3ncnn23)C1 (stereo unspecified)
 : -9% | -13%
Cn1nccc1-c1ccc(C(=O)NCc2ccco2)c2occc12
 : -26% | -18%
Cc1cccc(OCCNC(=S)NC(=O)c2cncc(Br)c2)c1
 : i | -15%
CCOC(=O)N1CCC(NC(=O)c2ccc3c(c2)N(CC)CCS3)CC1
 : 6% | -13%
O=c1c2oc3ccccc3c2n(Cc2ccc(Cl)cc2)c(=O)n1Cc1ccc2c(c1)OCO2
 : -10% | -8%
COc1ccc(N2CCN(S(=O)(=O)c3ccc4oc(=O)ccc4c3)CC2)cc1
 : -8% | -9%
O=C(C[n+]1ccc(C(=O)N/N=C/c2ccc(O)cc2)cc1)c1ccccc1
 : -16% | -12%
Cc1cc(=O)oc(C)c1C(=O)N1CCN(C)CC1
 : / | 3%
CCN(CC)CCOC(=O)c1ccc(NC(=O)CNC(=O)c2ccccc2)cc1
 : ? | -4%
COc1ccccc1C1C(C(N)=O)=C(C)Nc2nc(-c3ccccc3Cl)nn21 (stereo unspecified)
 : -6% | 2%
CC(=O)c1cc2c(cc1NS(=O)(=O)c1ccc(C)cc1)OCCO2
 : / | ?
c1ccc(CCNc2nc(-c3cccnc3)cs2)cc1
 : -16% | -5%
O=C(Nc1ccncc1)C1CC(=O)N(c2ccccc2)C1 (stereo unspecified)
 : i | -6%
COc1ccc(N(C)S(=O)(=O)c2ccc(Cl)c(C(=O)NNC(=O)c3ccccc3O)c2)cc1
 : -9% | -16%
O=C(Nc1nnc(C2CC2)s1)c1cc2ccccc2o1
 : -17% | -10%
O=C(CCN1C(=O)S/C(=C\c2ccccc2)C1=O)Nc1ccc(O)cc1C(=O)O
 : -14% | -8%
CSCCC(NC(=O)c1ccccc1)C(=O)NCCc1ccc2c(c1)OCCO2 (stereo unspecified)
 : -5% | 0%
O=C(CSc1nc2ccsc2c(=O)n1NC(=O)c1ccccc1)Nc1nccs1
 : -4% | -11%
COC(=O)c1ccc(N2NC(=O)/C(=C/c3ccc(-c4ccc(Cl)c(C(=O)O)c4)o3)C2=O)cc1
 : i | 7%
CSc1ccc(CN2CCC2(C)C(=O)Nc2cccc(NS(C)(=O)=O)c2)cc1 (stereo unspecified)
 : 3% | -15%
c1coc(CNC2CCCCC2)c1
 : -9% | 1%

Next results.
Screens in order: Vaccinia mCherry | VACV Venus inh
Cc1onc(-c2ccccc2Cl)c1C(=O)Nc1nnc(Cc2ccc(Cl)cc2)s1
 : / | -8%
Cc1ccccc1Cn1c(SCc2ccc(C(=O)NC3CCCCC3)cc2)nc2ccncc21
 : -20% | -20%
COCCCN(CCC#N)C(=O)c1c(-c2c(Cl)cccc2Cl)noc1C
 : -19% | -10%
CCOC(=O)CSc1nc2sc3c(c2c(=O)n1Cc1ccccc1)CCC(C(C)(C)C)C3 (stereo unspecified)
 : -6% | 10%
COc1ccc(CN(C)C(=O)COC(=O)c2cnc(Cl)c(Cl)c2)cc1
 : -23% | -10%
CCN(CC)C(=O)C1=C(C)N(Cc2ccc(OC)cc2)C(=O)C(CC(=O)NCCc2ccccn2)C1 (stereo unspecified)
 : 7% | -7%
CCOC(=O)c1noc2ncnc(NCc3ccccc3OC)c12
 : -4% | 1%
O=C(NC1CC(=O)N(c2ccc(F)cc2)C1)c1ccco1 (stereo unspecified)
 : -8% | -7%
Cn1c(Cl)c(/C=N/OC(=O)C2CC2)c2ccccc21
 : -11% | -16%
O=C(NCCCN1CCCCC1)c1cc(Sc2ccc(Cl)cc2)nc2ccccc12
 : -28% | -22%
COc1ccc(NC(=O)C2CCC(CNc3c(N4CCCCC4)c(=O)c3=O)CC2)c(OC)c1 (stereo unspecified)
 : -1% | -24%
Nc1c2c(nc3ccccc13)CCCC2=O
 : 0% | 0%
O=S(=O)(Cc1ccc(Cl)cc1)Oc1ccc(Cl)cc1
 : ? | -6%
CC(C)c1ccc(S(=O)(=O)N2CCN(C(=S)NCc3ccco3)CC2)cc1
 : -12% | -4%
CCc1c(C)c2c(C)[nH]nc2oc1=O
 : / | -20%
C=C(C)C(=O)Nc1cccc(C2=NOC3(C2)C[C@H](C(N)=O)N(C(=O)c2ccccc2C(=O)c2ccccc2)C3)c1 (stereo partly specified)
 : i | -21%
COC(=O)c1ccc(-n2c(C)nc(=O)c(-c3ccccc3)c2C)cc1
 : ? | -7%
CNC(=O)[C@H]1O[C@@H](n2cnc3c(N)ncnc32)[C@H](O)[C@@H]1O
 : -18% | -8%
Cc1ccc(Cl)cc1N1CCN(C(=O)c2cnn(C(C)(C)C)c2C2CCN(C(=O)OC(C)(C)C)CC2)CC1
 : -9% | -14%
O=C(/C=C/[C@H]1O[C@@H](n2ccc(=O)[nH]c2=O)[C@H](O)[C@@H]1O)N1CCN(Cc2ccc(F)cc2)CC1
 : i | -2%
CCn1c(-c2ccccc2SC)n[nH]c1=S
 : -10% | -8%
CC(=O)c1ccc(N2CCN(c3ccnc4cc(Cl)ccc34)CC2)cc1
 : ? | -16%
O=C(CSc1nccn1Cc1ccc(F)cc1)Nc1ccc2c(c1)OCCO2
 : -3% | -22%
CCC(C)C(=O)Nc1nc(C)c(-c2csc(Nc3ccccc3OC)n2)s1 (stereo unspecified)
 : ? | ?
CN1CCC(N(C)C(=O)c2sc3cc(F)ccc3c2Cl)CC1
 : i | -1%
O=C(NCc1ccccn1)Nc1cccc(Cl)c1
 : -8% | -6%
c1ccc2sc(NCC3CCCO3)nc2c1 (stereo unspecified)
 : i | -6%
C/C=C1\NC(=O)[C@H](C)NC(=O)[C@@H](NC(=O)[C@H](Cc2ccc(O)cc2)NC(=O)[C@@H](NC(=O)/C(C)=C/C)C(C)C)[C@@H](C)OC(=O)[C@H](CCCc2ccc(O)cc2)NC(=O)[C@@H](CCC(=O)OC)NC1=O
 : i | -3%
NS(=O)(=O)c1ccc(NC(=S)Nc2cc(Cl)c(Cl)cc2Cl)cc1
 : -13% | -15%
CCOC(=O)C1(C)CCCN(C(=O)c2cccc(Cl)c2)C1 (stereo unspecified)
 : 1% | 3%

Remaining list, next part:
Screens in order: Vaccinia mCherry | VACV Venus inh
Fc1ccc(-c2noc3ncnc(NCCc4ccc(Cl)cc4)c23)cc1
 : -15% | -9%
CCC(=O)c1ccc(OCC(=O)OCC(=O)c2c(N)n(C)c(=O)n(C)c2=O)cc1
 : i | -10%
Cc1ccc(-c2nc(C(=O)NCc3ccccc3Cl)c3n2CCCCC3)cc1
 : ? | -28%
CCOC(=O)C1CCCN(C(=O)/C=C/c2ccc(OC)cc2)C1 (stereo unspecified)
 : i | 0%
COc1cc(OC)c2ccc(=O)oc2c1C(CCN1CCCC(C)C1)c1ccc(N(C)C)cc1 (stereo unspecified)
 : -19% | -12%
COc1ccc(NC(=O)COc2coc(CN3CCc4ccccc4C3)cc2=O)cc1
 : i | -12%
CCN1C(=O)c2ccccc2S(=O)c2ccc(C(=O)NCc3ccc(Cl)cc3)cc21 (stereo unspecified)
 : 2%[7.34 µM] | -4%[7.34 µM]
CCN(CC)C(=O)CSc1nnc2nnc3cc(OC)ccc3n12
 : -53% | ?
O=C(NCc1ccccc1Cl)c1ccc2sc([C@H]3C[C@H](O)[C@@H](CO)O3)nc2c1
 : -7% | ?
CC(C)[C@H](NC(=O)c1ccccc1)C(=O)O
 : -4% | -10%
O=C(NCCCc1ccccc1)c1ccc2c(c1)sc1nc(-c3ccc(F)cc3)cn12
 : -21% | -15%
Cc1cccn2c(CN(C)C3CCOC3)c(C(=O)N3CCCCC3)nc12 (stereo unspecified)
 : -3% | -6%
CC(C)(C)NC(=O)Cn1c(-c2nonc2N)nc2ccccc21
 : / | -21%
COc1ccccc1CNc1ncnc2c1nnn2C
 : -24% | -23%
COc1ccc(OCC(=O)NS(=O)(=O)c2ccc(Cl)cc2)cc1
 : i | -13%
CC1=C(C(=O)OCC(C)C)C23C(=O)c4ccccc4C2(O1)OC(N)=C3C#N (stereo unspecified)
 : -24% | -8%
Cn1c(=S)c2[nH]c(SCC3CCCO3)nc2n(C)c1=O (stereo unspecified)
 : -15% | -6%
Cc1cccc(C)c1OCc1cc(C(=O)NCC2COCCO2)no1 (stereo unspecified)
 : -8% | -22%

Entries of single compounds from above. Order of screens: Vaccinia mCherry, VACV Venus inh
COc1ccccc1C1C(C(N)=O)=C(C)Nc2nc(-c3ccccc3Cl)nn21 (stereo unspecified) across the screens: -6%, 2%
COc1ccccc1C1(CC(=O)N2CCOCC2)CCOC(C(C)C)C1 (stereo unspecified) across the screens: -21%, -15%

Assay outcomes from PubChem.
